# Assay outcomes deposited in PubChem by National Center for Advancing Translational Sciences (NCATS).
# gsp antag – qHTS for Antagonists of gsp, the Etiologic Mutation Responsible for Fibrous Dysplasia/McCune-Albright Syndrome: qHTS | gsp-mutant cells, cAMP HTRF, 30 min; control for the full effect not named in the record | Potency, µM (doses to about 76.9 µM), for inactives: at the top dose activity change, negative = inhibition, actives largely listed as inhibitors | hit rate 0.4% among 340,000; active = falling curve of any shape with a large fitted effect; inconclusive = falling curve, mostly with a smaller effect; inactive = flat or rising curve; cell line not stated here;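 further: intracellular cAMP measured with PDE inhibitor Ro 20-1724 present during compound exposure; potency means the concentration at half of the fitted maximal effect; on the % scale 0 is the no-effect control and ±100 the full control effect; nearly all actives have a fitted effect of over 65% in size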
#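 Measurement of cellular cAMP by homogeneous time-resolved fluorescence following a 30 min compound exposure at 37C. The PDE inhibitor […] was present throughout; the assay buffer was DPBS with 0.05% BSA and 0.005% Tween 20.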
# PINK1 modulator – A Quantitative High throughput Screen to Identify Chemical Modulators of PINK1 Expression; hit rate 0.2% among 410,000; Potency, µM (doses to about 76.6 µM), without a hit: top-dose activation (PINK1 increase), usual class: activators; PINK1 immunofluorescence, high-content cytometry, 24 h; active = well fitted activation curve with a large enough effect; inconclusive = small, poorly fitted or top-dose-only effect; inactive = flat fitted curve, though single readings scatter; cell line not stated here;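 further: potency means the concentration at half of the fitted maximal effect; % of control where 0% means no effect; nearly all actives have a fitted effect of over 65% in size; a mitochondrial uncoupler was the plate control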
#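 Fluorescence from anti-PINK1 antibody, together with nuclear and cell stains, was scanned on a laser-scanning cytometer. Before staining, stable-line cells were incubated 24 hours with compounds at 5 concentrations; primary antibody 12 h at 10 degrees C.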
# gsp ag – qHTS for Agonist of gsp, the Etiologic Mutation Responsible for Fibrous Dysplasia/McCune-Albright Syndrome: qHTS. gsp mutant cells, cAMP HTRF, 30 min; control for the full effect not named in the record. Potency, µM (titrated, usually from 76.9 µM), inactives show at the highest dose activation (cAMP increase), most hits filed as activators. hit rate 0.13% among 340,000. AID 624287, 2012; active = well fitted activation curve with a large enough effect; inconclusive = small, poorly fitted or top-dose-only effect, or another doubt; inactive = no such curve, though single readings can be large or run the other way; cell line not stated here;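 further: phosphodiesterase inhibitor Ro 20-1724 added with compounds to block cAMP breakdown; potency means the concentration at half of the fitted maximal effect; nearly all actives have a fitted effect of over 60% in size; about a fifth of the inactives were tested at one dose only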
#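 Cells in DMEM/10% FBS with G418 were pretreated with compounds in DMSO plus […] (300 uM stock) for 30 min at 37C. cAMP was measured by HTRF (cAMP-d2 plus anti-cAMP antibody-K) after 30 min at room temperature.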
# ClpP mod – qHTS Assay for Activators of ClpP. Potency, µM (highest dose often 57.5 µM), inactives show at the highest dose activity change, negative = active. purified B. subtilis ClpP, FRET peptide cleavage, 20 min. ATP-dependent Clp protease proteolytic subunit (Bacillus subtilis (strain 168)), P80244. hit rate 1.9% among 340,000; active = well fitted falling curve with a large enough effect; inconclusive = small, poorly fitted or top-dose-only effect; inactive = no such curve, though single readings can be large or run the other way; further: potency means the concentration at half of the fitted maximal effect; the source files actives as falling curves though it sought activators and does not explain the sign; nearly all actives have a fitted effect of over 65% in size; many hits overshoot -100%
# Target sequence (P80244 whole entry, looked up): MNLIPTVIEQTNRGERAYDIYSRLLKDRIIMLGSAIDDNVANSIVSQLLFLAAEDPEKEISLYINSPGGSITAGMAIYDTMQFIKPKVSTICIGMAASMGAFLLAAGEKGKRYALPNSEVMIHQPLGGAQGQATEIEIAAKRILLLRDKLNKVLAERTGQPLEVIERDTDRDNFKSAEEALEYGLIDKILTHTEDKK
#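 ClpP 10 microg/mL final, pH 8 Tris/KCl buffer with BSA, glycerol, Tween-20; compound pinned in; FRET-FV substrate; RT 20 min; Ex320/Em430; ΔFRET vs ADEP 5.8 microM, DMSO, no enzyme.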
# Menin MLL FP FL – qHTS Assay for Inhibitors Targeting the Menin-MLL Interaction in MLL Related Leukemias: Competition With Fluorescein Labeled MLL-derived Peptide; Fluorescence polarization, fluorescein-MLL peptide displacement from menin; FP activity change, % at 61.4 µM; 290,000 tested, under 10 active; AID 1766, 2009; inconclusive = falling polarisation curve, or a change in total fluorescence; inactive = total fluorescence flat and polarisation flat or rising; no compound was filed as active; the % refers to the polarisation; negative = inhibition;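 further: % of control where 0% means no effect; inhibitors lower the polarisation; unlabelled MLL peptide was the positive control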
# D2 ag – Beta-Arrestin HTS for Positive Allosteric Modulators of the Human D2 Dopamine Receptor: Agonists; DiscoveRx PathHunter D2 beta-arrestin, luminescence, 90 min; 100% = 57 uM dopamine signal; AID 624465, 2012; activation, % (concentration not given with the values); hit rate 0.084% among 360,000; in the data active = activation above about 40%; inconclusive = about 15% to 40%; inactive = below about 15%; further: compound concentration not given in the record; the text of the record calls up to 30% inactive
# Target sequence (P14416 whole entry, looked up): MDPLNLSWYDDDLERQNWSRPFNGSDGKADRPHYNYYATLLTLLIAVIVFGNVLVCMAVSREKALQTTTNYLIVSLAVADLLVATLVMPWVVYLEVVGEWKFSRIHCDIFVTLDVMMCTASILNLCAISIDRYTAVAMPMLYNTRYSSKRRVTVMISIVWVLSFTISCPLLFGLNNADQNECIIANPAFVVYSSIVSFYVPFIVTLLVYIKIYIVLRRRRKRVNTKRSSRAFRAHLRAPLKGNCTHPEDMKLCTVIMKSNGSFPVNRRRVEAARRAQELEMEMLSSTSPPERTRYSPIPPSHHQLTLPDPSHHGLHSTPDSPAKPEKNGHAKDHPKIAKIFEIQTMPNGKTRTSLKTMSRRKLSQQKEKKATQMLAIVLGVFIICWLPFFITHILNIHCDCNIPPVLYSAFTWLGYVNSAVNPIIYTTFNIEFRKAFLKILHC
#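 DiscoveRx PathHunter D2 beta-arrestin cells (2,100/well) attached overnight, then compound-stimulated 90 min at 37 C in HBSS/10 mM HEPES/0.1% Tween-20 buffer; beta-galactosidase complementation read by luminescence after 1 h at ambient temperature. Dopamine 57 uM final (EC100) as control.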
# Sfp PPTase inh – qHTS Assay for Inhibitors of Bacillus subtilis Sfp phosphopantetheinyl transferase (PPTase). hit rate 3.5% among 310,000. 4'-phosphopantetheinyl transferase ffp (Bacillus subtilis), Q9F4F7. Biochemical Sfp PPTase activity, qHTS. Potency, µM, for inactives: max response, negative = inhibition, hits mostly inhibitors; active means well fitted inhibition curve with a large enough effect; inconclusive means small, poorly fitted or top-dose-only effect, or another doubt; inactive means no such curve, though single readings can be large or run the other way;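 further: the enzyme is Sfp with the accession as filed and its product quenches rhodamine fluorescence; potency means the concentration at half of the fitted maximal effect; 0% = enzyme reaction without inhibitor and -100% = no enzyme wells; top concentration of the series not given in the record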
#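 After 15 min at room temperature with compound, 15 nM Sfp received 5 uM rhodamine-CoA plus 12.5 uM BHQ-2-ybbR (50 mM Hepes pH 7.6, 10 mM MgCl2). Rate came from the fluorescence difference over 30 min, ex 525/em 598 nm.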
# * = called active by the depositor; ? = inconclusive; . = no result given; & = joins results of further samples; [ ] = another dose, or the depositor's remark.
SMILES,gsp antag,PINK1 modulator,gsp ag,ClpP mod,Menin MLL FP FL,D2 ag,Sfp PPTase inh
Clc1ccc(COn2c(-c3ccc(Cl)cc3Cl)nc3ncccc32)cc1,-20%,-1.7%,4%,1.5%,0.1,-2.7,-8%
c1ccc(CNc2ncnc3ccccc23)cc1,?,-2.1%&-0.1%,15%,0.8%&-1.5%,-0.6&1.0,0.6&-4.7,-7%&13%
CCOC(=O)c1ccc(NC(=O)c2nc[nH]c2C(=O)N[C@@H](Cc2ccccc2)C(=O)OC(C)(C)C)cc1,4%,?,.,?,2.7,-0.2,27%
O=S(=O)(CCNCCc1ccccc1)NC1CCCCC1,13%,-0.8%,.,-0.8%,.,-0.4,.
CC(=O)Nc1ccc(NC(=O)c2cccc(S(=O)(=O)N(C)C3CCCCC3)c2)cc1,-15%,8.3%,-8%,1.7%,.,-2.7,.
CCS(=O)(=O)c1ccc2oc(Nc3ccccc3Cl)nc2c1,-2%,3.6%,13%,.,.,7.1,2%
C/C(CC(=O)Nc1ccc(N(C)C)cc1)=N\NC(=O)Cc1csc(N)n1,-12%,-1.0%,21%,-1.5%,-3.1,2.8,?
CCN(CC)c1ccc(NC(=O)CN2C(=O)CSc3ncccc32)c(C)c1,-6%,2.0%,13%,0.1%,0.8,-1.7,-7%
Cc1nn(-c2ccccc2)c(Cl)c1/C=C/C(=O)c1ccc(O)cc1,?,-5.7%,8%,-2.5%,8.9,-2.3,-9%
O=C(NCc1ccco1)c1ccc2[nH]c(=O)c(=O)[nH]c2c1,3%,-0.8%,2%,3.9%,4.3,0.4,4%
CC1(C)CC(=O)C2=C(C1)NC(=O)NC2c1ccccc1Cl (stereo not drawn),-3%,-0.2%,0%[15.4 µM],.,.,-2.1,.
CC(=O)N(C)c1ccc(C=C2C=Cc3ccccc32)cc1,2%,25%,-3%,1.2%,.,9.1,.
Cc1ccc(S(C)(=O)=O)cc1C(=O)OCC(=O)N(Cc1ccccc1)Cc1ccccc1,?,1.0%,-11%,1.4%,.,4.0,.
CCOC(=O)C1(CCOc2ccccc2)CCN(CCCn2cccn2)CC1,7%,-0.9%,-51%[inhibitor],.,0.0,1.8,3%
Cc1cc(C)c(S(=O)(=O)c2ccccc2C)c(N(C)C)n1,9%,4.1%,-27%,-0.7%,3.0,-5.7,13%
Cc1nc(C(F)(F)F)ccc1C(=O)NCC(O)c1ccccc1 (stereo not drawn),5%,0.3%,-11%,1.9%,-8.3,-3.9,12%
CN1CCC(N(C)C(=S)NCCc2ccccc2)CC1,9%,-1.0%,25%[15.4 µM],-2.2%,-3.3,-2.4,18%
Cc1ccnc(SCC(=O)Nc2sccc2C#N)n1,0%,-0.7%,-3%,-1.6%,.,-1.7,-6%
Cc1c(Cl)cnc(NC(=O)COC(=O)c2cc3c(s2)CCC(C)C3)c1Cl (stereo not drawn),-16%,12%,-8%,-2.3%,5.7,-0.9,9%
O=S(=O)(c1ccc2nnn(O)c2c1)N1CCOCC1,3%,2.2%,-3%,2.2%,.,-1.0,.
CCSc1nc(-c2ccccc2)nc2c1CCCC2,-4%,-2.4%,23%,.,-0.2,0.4,-4%
O=[N+]([O-])c1cccc(/C=C/c2nc(C=Nc3ccccc3)c(O)o2)c1,15%,?,-4%,-0.1%,?,-1.9,-10%
CCS(=O)(=O)N1CCc2cc(OC)c(OC)cc2C1,-17%,-0.1%,6%,0.6%,2.6,-0.9,15%
O=C(c1ccccc1)[C@@H]1[C@@H]2C(=O)N(c3ccc(F)cc3)C(=O)[C@@H]2C2CCCN21 (stereo partly drawn),-9%,1.1%,15%,-1.5%,?,-7.4,89µM*
Cc1[nH]c(=O)[nH]c(=O)c1NC(=O)CSc1ncccc1-c1nc2ccccc2[nH]1,0%,-1.1%[38.3 µM],9%,?,2.5,1.3,1%
Cc1ccc(/C=C(\NC(=O)c2ccccc2)C(=O)NCC2CCCO2)o1 (stereo not drawn),8%,3.2%,-12%,-1.7%,-0.5,-1.3,15%
O=c1cc(CSc2nnc3ccccn23)c2c(ccc3ccccc32)o1,-1%,3.7%,-3%,?,8.3,-1.9,?
O=C1OC(c2ccc3c(c2)OCO3)N(C(=O)c2ccc(Cl)c(Cl)c2)c2ccccc21 (stereo not drawn),0%,0.4%,-4%,-20%,4.3,-3.3,-5%
CC(=O)N(C)c1ccc(OCC(O)CN(c2ccccc2C)S(=O)(=O)c2ccc(C)cc2)cc1 (stereo not drawn),-28%,7.1%,-7%,-2.4%,.,0.2,11%
Cc1cc(C)n(-c2nc3c(c(=O)n(C)c(=O)n3C)n2Cc2cccc(Br)c2)n1,18%,1.6%,-29%,-1.6%,.,-1.2,.
c1ccc2ncc(-n3ccnc3)cc2c1,.,0.0%,.,-0.8%,.,-4.1,.
Cc1ccc(Cl)cc1N1CCN(C(=O)C2CCN(c3nnc(-n4cccc4)s3)CC2)CC1,-19%,-2.4%,26%,-4.3%,0.6,-0.2,-5%
COc1ccccc1NS(=O)(=O)c1ccc(C)c(C(=O)NCC(c2ccco2)N2CCCCC2)c1 (stereo not drawn),-27%,1.4%,6%,0.5%,-3.6,-2.4,9%
CN(C)c1cc(NC(=O)CNC(C)(C)C)c2ccccc2n1,-2%,0.6%,-15%,3.9%,2.0,3.3,79µM*
CCOc1cc(/C=C2\C(=O)ON=C2C)ccc1OCc1ccccc1,-4%,-2.7%,-7%,?,-0.2,-2.4,22µM*
c1ccc(CCn2cnc3ccccc32)cc1,2%,0.4%,27%,.,-2.4,4.2,15%
Cc1cc(C)c2c3c(oc2n1)C(=O)N(c1cccc(Cl)c1)CC(=O)N3,-17%,8.7%,-14%[15.4 µM],.,3.6,-2.0,-4%
OCC1(Cc2ccccc2F)CCCN(CCc2ccccc2)C1 (stereo not drawn),9%,8.0%,-70%[inhibitor],.,1.3,-0.6,24%
COc1cccc(/C=N\NC(=O)Cn2nnc3ccccc32)c1O,4%,-0.5%,-7%[15.4 µM],.,1.7,-4.2,24%
CCc1ccc(S(=O)(=O)Nc2ccc(Br)cn2)cc1,-2%,-1.7%,?,.,0.2,1.2,15%
O=C(NNS(=O)(=O)c1ccccc1[N+](=O)[O-])c1ccccc1Cl,-7%,-0.5%,-110%[inhibitor],1.7%,3.5,-2.6,1%
CCCn1c(SCC(=O)NCc2ccccc2)n[nH]c1=O,12%,0.1%,14%[15.4 µM],0.9%,-1.2,0.4,6%
Cc1ccc(-c2noc(CCC(=O)N3CCN(c4cccc(C(F)(F)F)c4)CC3)n2)cc1,-26%[15.4 µM],2.1%,-7%,-0.3%,9.3,-5.2,10%
Cc1ccc(-c2nc(N)n(C(=O)c3cccs3)n2)cc1,22%,1.0%,0%[15.4 µM],0.1%,0.3,-0.7,14%
Cc1ccccc1N1CCN(C(=O)c2cccnc2)CC1,9%,0.6%,-32%[inhibitor],.,.,-0.6,.
O=C(Cn1c(-c2ccccc2)c[n+]2ccsc12)c1ccccc1,-3%,1.7%,-23%,-2.4%,-8.8,-3.5,-2%
N#Cc1cccnc1N1CCN(C(=O)c2ccc3c(c2)S(=O)(=O)c2ccccc2C3=O)CC1,7%,-0.6%,?,-8.5%,.,13,.
Cc1nn(C)c(C)c1/C=C(/C(=O)C(C)C)n1cncn1,-2%,2.0%,20%,1.3%,0.2,-1.9,14%
CCc1nnc(NS(=O)(=O)c2ccc(NC(=S)NC(=O)c3ccccc3)cc2)s1,-21%,-1.0%,-4%,-9.3%,5.8,-4.4,5%
O=C1C(=O)N(Cc2cccnc2)C(c2cccc(F)c2)/C1=C(/O)c1ccc2c(c1)OCO2 (stereo not drawn),-9%,0.2%,?,0.5%,-0.1,-1.7,14%
# (next part)
SMILES,gsp antag,PINK1 modulator,gsp ag,ClpP mod,Menin MLL FP FL,D2 ag,Sfp PPTase inh
CCOC(=O)C1=C(COC(=O)c2ccc(C)s2)NC(=O)NC1C (stereo not drawn),8%,2.2%,2%[15.4 µM],.,.,-0.7,.
O=C(c1ccco1)N1CCN(S(=O)(=O)c2ccccc2[N+](=O)[O-])CC1,-3%,0.4%,8%[15.4 µM],.,-0.3,-3.5,9%
O=C(CCl)Nc1cc(S(=O)(=O)N2CCCCCC2)ccc1Cl,1%,-1.9%,2%,-1.6%,1.4,-3.5,11%
Cc1cc(C)cc(N(CC(=O)NCC2CCCO2)C(=O)CN2C(=O)COc3ccccc32)c1 (stereo not drawn),-2%,-2.2%[38.3 µM],0%,-0.3%,1.6,2.0,0%
COc1cc(C(=O)N2CCc3ccccc32)c([N+](=O)[O-])cc1OC,4%,0.3%,-27%,.,1.8,5.4,13%
CCCn1c(N/N=C\C=C\c2ccccc2)nc2c1c(=O)[nH]c(=O)n2C,-10%,14%,-3%,0.5%,2.6,4.7,-24%
C=CCNC(=O)/C(=C/c1cn(-c2ccccc2)nc1-c1cccc([N+](=O)[O-])c1)NC(=O)c1ccccc1,-12%,-0.2%,8%,-3.2%,1.5,1.9,5%
CCCOc1ccc(NC(=O)CC2C(=O)N(CC)C(=S)N2Cc2cccs2)cc1 (stereo not drawn),-28%,-1.0%[38.3 µM],-17%,0.4%,0.4,-0.5,2%
COc1cccc(-c2nc(N3CCN(Cc4ccccc4)CC3)c3ccccc3n2)c1O,-6%,1.3%,?,0.9%,2.3&1.1,-0.8,9%&1%
